# Screening data: PubChem BioAssay, National Center for Advancing Translational Sciences (NCATS)
# Rango complex inh: qHTS Assay for Inhibitors of Rango (Ran-regulated importin-beta cargo) - Importin beta complex formation. Importin subunit beta-1 (Homo sapiens), Q14974. Rango CFP/YFP FRET sensor + importin beta, 45 min. Potency, µM (titrated, usually from 92.2 µM), for the others: top-dose inhibition of complex formation. hit rate 0.031% among 340,000. AID 540263, 2011; active = rising FRET ratio curve, often small or poorly fitted; inconclusive = mostly compound fluorescence or quenching in the first reads; inactive = flat curves in all reads;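 note: potency is the fitted concentration of half-maximal effect; 0% = DMSO wells and 100% = buffer wells lacking importin beta; nearly all actives have a fitted effect of over 15% in size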
#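 FRET biosensor Rango (snurportin 1 IBB between N-terminal EYFP and C-terminal Cerulean), 50 nM in PBS/1 mM DTT/0.02% Tween-20/0.1% BSA, preincubated 5 min RT with compound; 0.125 microM importin beta added, 45 min RT, CFP/YFP FRET ratio read.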
# GLA inh pH 4.5: qHTS Assay for Inhibitors of Human alpha-Galactosidase at pH 4.5. Alpha-galactosidase A (Homo sapiens), P06280. activity change, negative = inhibition, % at 105 µM. 230,000 tested, under 10 active. purified enzyme, 4-MU-alpha-Gal fluorescence, pH 4.5. AID 1467, 2008; inconclusive = small, poorly fitted or top-dose-only inhibition, or a rising curve; inactive = flat fitted curve, though single readings scatter; no compound was filed as active;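 note: 0% = full activity with enzyme and -100% = basal without enzyme; dose as in the result columns while the protocol names 77 µM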
# Target sequence (P06280 whole entry, looked up): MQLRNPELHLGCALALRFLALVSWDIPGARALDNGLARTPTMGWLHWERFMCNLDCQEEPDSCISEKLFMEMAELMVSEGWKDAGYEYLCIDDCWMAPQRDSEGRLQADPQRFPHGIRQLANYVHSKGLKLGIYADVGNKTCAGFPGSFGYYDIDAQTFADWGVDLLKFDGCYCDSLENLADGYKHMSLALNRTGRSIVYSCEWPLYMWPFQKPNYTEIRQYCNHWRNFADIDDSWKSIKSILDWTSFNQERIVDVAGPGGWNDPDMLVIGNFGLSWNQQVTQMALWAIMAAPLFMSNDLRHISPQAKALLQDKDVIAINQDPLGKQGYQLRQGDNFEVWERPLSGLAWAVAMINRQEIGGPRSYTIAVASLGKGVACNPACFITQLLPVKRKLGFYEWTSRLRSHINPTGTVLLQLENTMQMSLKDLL
# Rango dissoc inh: qHTS Assay for Inhibitors of RanGTP induced Rango (Ran-regulated importin-beta cargo) - Importin beta complex dissociation; Snurportin-1 (Homo sapiens) + GTP-binding nuclear protein Ran (Homo sapiens) + Importin …; Biochemical FRET Rango-importin beta, RanGTP-induced dissociation; Potency, µM (top dose mostly 46.1 µM), without a hit: at the top dose activity change, negative = inhibition; hit rate 0.071% among 340,000; AID 540253, 2011; active means falling FRET ratio curve, often poorly fitted, with flat reads before Ran was added; inconclusive means other falling curves, or compound fluorescence or quenching; inactive means flat or rising ratio curve;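 note: potency is the fitted concentration of half-maximal effect; % of control where 0% means no effect; nearly all actives have a fitted effect of over 45% in size; -100% = wells without RanGTP and RCC1; the record marks most hits as doubtful in a second field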
#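 FRET read at 45 min, room temperature: inhibitors block the CFP/YFP signal rise when RanGTP (0.6 uM Ran, 2 mM GTP, 0.2 uM RCC1) frees Rango (0.1 uM) from importin beta (0.25 uM). Pre-read after 5 min compound exposure flags interference.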
# miR-21 reporter: qHTS Assay for Modulators of miRNAs and/orActivators of miR-21; HeLa miR-21 FLuc reporter, luciferase, 48 h; Potency, µM (highest dose often 38.3 µM), without a hit: at the highest dose reporter change, positive = more light; 340,000 tested, under 10 active; AID 2288, 2010; active = well fitted rising curve with a large enough effect; inconclusive = small, poorly fitted or top-dose-only effect; inactive = no such curve, though single readings can be large or run the other way;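 note: % of control where 0% means no effect; miR-21 action dims this reporter so a rising signal means less miR-21 action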
#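 Luminescence from a firefly luciferase reporter carrying a miR-21 binding site downstream, stably expressed under a CMV promoter in HeLa cells that make miR-21 endogenously, reports miRNA modulation after 48 h compound exposure up to approximately 40uM final.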
# * = called active by the depositor; ? = inconclusive; nt = no result given; & = joins results of further samples.
cpd	SMILES	Rango complex inh	GLA inh pH 4.5	Rango dissoc inh	miR-21 reporter
1	Cc1ccc(S(=O)(=O)N(CC(=O)N2CCC(C)CC2)Cc2ccccc2F)cc1	4.1%	0.9	-11.9%	10.6%
2	CN(CCC1CCOCC1)Cc1cn[nH]c1-c1ccc(-c2ccccc2)cc1	-0.9%	-5.4	0.9%	-47.1%
3	O=c1c2c3c(sc2nc(NCCO)n1CCc1ccccc1)CCCCC3	2.6%	-2.9	-0.1%	7.2%
4	COc1ccc(NC(=O)C(F)(F)F)cc1OC	8.5%	-2.2	-5.5%	-1.6%
5	COC(=O)c1cc(C#N)c(Oc2ccccc2OC)nc1C	0.3%	3.7	-6.4%	0.7%
6	CCOc1ccc(NC(=O)COC(=O)CCS(=O)(=O)c2ccc(C)cc2)cc1	1.9%	4.5	-6.1%	-6.6%
7	CNC(=S)/N=C/NOCc1c(Cl)cccc1Cl	10.2%	-2.6	17.2%	25.0%
8	COc1ccc(-c2cc(C(F)(F)F)c(C#N)c(SCC(=O)Nc3ccccc3C#N)n2)cc1	?	-1.9	?	0.8%
9	O=C(c1cc(C2CC2)nc2ccc(Br)cc12)N1N=C(C(F)F)CC1(O)C(F)F (stereo unspecified)	-1.2%	1.4	-1.9%	24.6%
10	O=C(/C=C/c1cccc([N+](=O)[O-])c1)OC1CCCCC1=O (stereo unspecified)	17.2%	-5.7	1.2%	-2.0%
11	Cc1noc(C(=O)NCC2CCCO2)c1Cl (stereo unspecified)	-0.1%	nt	1.9%	-2.5%
12	CCn1cc(C(=O)N2CCc3ccccc32)c(=O)c2cc(S(=O)(=O)N3CCCC3)ccc21	-0.1%	?	1.4%	-10.6%

# Later entries.
cpd	SMILES	Rango complex inh	GLA inh pH 4.5	Rango dissoc inh	miR-21 reporter
13	Cc1ccc(OCCNC(=O)c2ccccc2O)cc1	0.3%	nt	29.3%	-16.3%
14	OCC1=C[C@@H](O)C2C=CO[C@@H](O[C@@H]3O[C@H](CO)[C@@H](O)[C@H](O)[C@H]3O)C12 (stereo partly specified)	1.6%	nt	?	nt
15	CC1CCN(C(=O)CSc2nnc(-c3cccnc3)n2C2CCCCC2)CC1	?	-3.8	?	1.3%
16	Cc1cc(N2CCCC(C(=O)Nc3ccc4c(c3)CCC4)C2)n2ncnc2n1 (stereo unspecified)	0.5%	-0.6	0.6%	-12.4%
17	CC(C)(C)c1cc(NC(=O)CSc2nnc(N)s2)n(-c2ccccc2)n1	2.1%	0.6	0.5%	1.4%
18	CCOC(=O)Cn1c(=N)n(CCOc2ccc(F)cc2)c2ccccc21	2.1%	-22.8	7.3%	0.1%
19	CCc1ccccc1NC(=O)c1cc(-c2ccc3c(c2)OCO3)on1	-7.0%	nt	16.6%	-13.2%&-29.1%
20	CN1N=C(/C=C/c2ccccc2)CCC1=O	-0.3%	-11.2	-8.8%	-40.2%
21	CC(C)OCCCNC(=O)c1ccccc1NC(=O)C1=CSCCO1	4.7%	nt	17.8%	0.2%
22	COc1ccc(/C=C(\NC(=O)c2ccc(C)cc2)C(=O)NCC2CCCO2)cc1 (stereo unspecified)	1.7%	0.0	-10.2%	-1.0%
23	COc1cc(OC)cc(C(=O)N[C@H](C(=O)Nc2nc(-c3ccc(F)c(F)c3)cs2)C(C)C)c1	-0.4%	5.1	3.6%	1.9%
24	Cc1ccn2c(C(=O)N/N=C/c3ccc(Cl)cc3)c(C)nc2c1	-4.5%	nt	-10.0%	-0.3%

# Next section:
cpd	SMILES	Rango complex inh	GLA inh pH 4.5	Rango dissoc inh	miR-21 reporter
25	COc1ccc2c(c1)CCC/C2=N/OC(=O)c1ccccc1OC	1.2%	-0.8	0.6%	-3.2%
26	Cc1ccc(-n2nc(C)cc2Nc2ncc(Cl)cc2Cl)cc1	3.6%	-19.6	-5.3%	-2.5%
27	Cc1ccc(OCC(=O)NN=C2c3ccccc3-c3ccccc32)cc1	1.0%	3.0	3.7%	-4.4%
28	CCC/C(C)=C/c1ccc(CC)cn1	-2.2%	-6.3	-5.8%	-6.6%
29	COCCCN(C(=S)Nc1cc(C)cc(C)c1)C(C)c1ccncc1 (stereo unspecified)	1.7%	-2.4	-10.7%	-10.6%
30	COc1cc(OC)nc(NC(=O)CSc2nc3ccccc3[nH]2)n1	-6.3%	4.8	0.6%	-3.5%
31	COc1ccc(C(O)(CCC(C)C)C(CN2CCOCC2)c2ccccc2)cc1 (stereo unspecified)	-2.6%	nt	-11.2%	15.6%
32	CCOC(=O)c1ccccc1NC(=O)CSc1nc2ccccc2o1	4.4%	-3.0	-18.2%	-38.6%
33	COc1cc(C)c(NC(=O)C(=S)NCc2ccccc2)cc1C	-3.1%	-5.5	-5.2%	-5.1%
34	Cc1cnc(CN(C)C(=O)CC2C(=O)NCCN2CCCc2ccccc2)[nH]1 (stereo unspecified)	-3.6%	nt	-2.1%	-3.8%
35	Nc1ccc(N2CCCCCC2)cc1	nt	-1.8	nt	15.0%
36	COc1ccc(-c2nnc(-c3ccc(F)cc3)o2)cc1	0.0%	nt	5.4%	-61.4%

# (list continues)
cpd	SMILES	Rango complex inh	GLA inh pH 4.5	Rango dissoc inh	miR-21 reporter
37	Cc1cc(O)ccc1Nc1nc(-c2cccs2)cs1	0.9%	-1.5	0.1%	-42.7%
38	C=CCNc1ccc(N2C(=O)CCCC2=O)cc1[N+](=O)[O-]	1.5%	nt	-8.0%	2.9%
39	CCOC(=O)c1ccccc1NC(=O)Cn1cnc2c(cnn2-c2ccc(F)cc2)c1=O	0.9%	2.0	0.0%	-1.8%
40	CCOC(=O)c1cc(C)nc(SC)c1C#N	1.3%	-5.2	-8.1%	-0.4%
41	COc1ccc(OC)c(CNC(=O)CCCn2ccc3cc(S(=O)(=O)N4CCCC4)ccc32)c1	-0.7%	nt	5.7%	22.0%&29.1%
42	O=C(N/N=C/c1cccc(O)c1)C(=O)N1CCCCCC1	-1.7%	nt	-2.2%	-0.7%
43	COC(=O)Cn1c(C)nc([N+](=O)[O-])c1Br	0.2%	-3.6	-9.3%	5.6%
44	Cc1oc(-c2ccccc2)nc1CS(=O)CC(=O)O (stereo unspecified)	?	-14.3	-4.7%	-4.1%
45	S=C(Nc1ccc(OCc2ccccc2)cc1)Nc1cccc(Cl)c1Cl	3.8%	-9.2	-17.4%	-5.8%
46	COc1ccc(CC(=O)N/N=C/c2sccc2C)cc1	2.8%	nt	-22.0%	-18.4%
47	CCOc1cccc2cc(C(=O)NCc3ccccc3Cl)c(=O)oc12	4.2%	nt	-2.7%	-0.5%
48	CC(=O)Nc1ccc(NC(=O)c2c(C)c(-c3ccccc3)nc3ccccc23)cc1	-0.5%	nt	-2.2%	nt

# (more compounds)
cpd	SMILES	Rango complex inh	GLA inh pH 4.5	Rango dissoc inh	miR-21 reporter
49	CCOC(=O)c1ccc(N[C@@H]2CCN3C(=O)c4ccccc4[C@@H]3C[C@H]2O)cc1	-2.0%	nt	-0.9%	nt
50	O=C(CCc1ccccc1)Nc1ccc2c(c1)OCCO2	-0.2%	2.8	0.1%	-27.4%
51	C=CCn1c(SCC(=O)NC2CC2)nnc1C1CC1	?	nt	0.3%	1.6%
52	O=C(Nc1cc(Sc2nc3ccccc3s2)cc([N+](=O)[O-])c1)c1ccccc1	2.8%	-0.6	-3.2%	19.6%
53	CC1(C)CCC(=O)N2CC[C@H]3C[C@H](OC(=O)Nc4ccc(Br)cc4)C[C@@H]1[C@H]32	1.2%	nt	2.0%	-23.6%
54	Cc1ccc(C(=O)NCCC2=CCCCC2)cc1S(=O)(=O)N1CCOCC1	5.4%	nt	-24.6%	nt
55	Cc1cc(S(=O)(=O)N2CCCCC2)ccc1OCC(=O)Nc1ccccc1	1.0%	nt	3.6%	13.1%
56	NC(=O)N/N=C/c1ccccc1OC(=O)c1ccccc1Br	?	9.1	-10.5%	-1.9%
57	CCCc1nc(SCC(=O)NC2CCCC2)c2ccccc2n1	-1.1%	nt	-2.0%	-5.7%
58	Cc1ccc(NC(=O)C2C3C=CC(O3)C2C(=O)O)c(C)c1 (stereo unspecified)	1.0%	nt	13.5%	-0.6%
59	Cc1ccc(S(=O)(=O)NCc2ccccc2)cc1C(=O)N1CCN(c2ccccc2)CC1	4.0%	nt	-16.4%	nt
60	O=C(O)c1ccc(NN=CC2=C(N3CCOCC3)/C(=C/c3ccccc3)CC2)cc1	?	nt	?	nt

# Next structures
cpd	SMILES	Rango complex inh	GLA inh pH 4.5	Rango dissoc inh	miR-21 reporter
61	NS(=O)(=O)c1ccc(N=Nc2c[nH]c(=O)c(O)c2)cc1	?	-14.9	23.1µM*	2.6%
62	CCSc1ccc(-c2ccco2)nn1	2.6%	1.0	-8.0%	-26.5%
63	Cc1ccc(S(=O)(=O)NC2=NCCC2)cc1	-3.8%	-0.2	-1.7%	-4.2%
64	COc1ccc(CC(=O)NCCS(=O)(=O)N2CCN(c3ccc(F)cc3)CC2)cc1OC	-2.5%	nt	3.5%	7.3%&8.0%
65	COc1ccc(C(=O)NCCS(=O)(=O)N2CCCCCC2)cc1	2.0%	nt	0.1%	nt
66	CCc1c(C#N)c(SCc2c(C)noc2C)nc2c1C(=O)CC(C)(C)C2	5.1%	-10.8	9.5%	5.0%
67	N#Cc1ccc(COC(=O)CSc2nnc(N)s2)cc1	1.6%	0.3	15.5%	0.0%
68	Cc1nn(CCCC(=O)Nc2c(F)cc(F)cc2Br)c(C)c1[N+](=O)[O-]	-2.7%	-13.6	-1.8%	-1.6%
69	O=C(NC1CCc2ccccc21)c1cc(COc2cncc(Cl)c2)on1 (stereo unspecified)	1.5%	nt	6.5%	0.3%
70	CCn1nc(C)cc1C(=O)N1CCCC(Nc2ccc(F)c(F)c2)C1 (stereo unspecified)	2.3%	nt	2.9%	-3.6%
71	Cc1ccc(-c2nnn(CC(=O)N(CC(=O)NC3CCCCC3)c3cnc4ccccc4c3)n2)o1	?	nt	-6.1%	nt
72	COc1ccc(C)cc1N(C(=O)c1snc(C(N)=O)c1N)C(C(=O)NC1CCCCC1)c1ccc(C)o1 (stereo unspecified)	-9.1%	nt	22.9%	0.5%

# The list goes on:
cpd	SMILES	Rango complex inh	GLA inh pH 4.5	Rango dissoc inh	miR-21 reporter
73	Cc1cc(N2CCOCC2)nc2ccc(NC(=S)N3CCN(c4ccccc4)CC3)cc12	0.8%	7.3	-14.0%	-5.3%
74	Cc1ccc(N2C(=O)Cc3ccccc3C2=O)cc1	0.8%	nt	-28.0%	10.4%
75	COc1cc(N)ccc1NC(=O)c1cc2ccccc2o1	-1.3%	nt	0.3%	-56.8%
76	Fc1ccccc1/C=N/NC(=S)Nc1ccc(Cl)cc1Cl	-1.1%	-17.1	13.1%	8.7%
77	CN(C)CCNc1nc(S(=O)(=O)c2ccccc2)c(Cl)s1	-0.9%	3.0	-3.4%	0.3%
78	CC1(C)Cc2nc3sc4c(=O)n(CC(=O)NCc5ccco5)cnc4c3cc2CO1	3.0%	0.4	-2.4%	-0.3%
79	COc1ccccc1NC(=O)CN1CCN(CC(=O)Nc2ccc3c(c2)OCCO3)CC1	2.3%	-3.5	-0.6%	11.1%
80	CC(C)[C@H](NC(N)=O)C(=O)NCCc1ccc(Cl)cc1Cl	-2.8%	8.2	4.4%	-3.0%
81	Cc1[nH]c(C)c2c(=O)n(Cc3ccc(Cl)cc3)ncc12	-1.0%	0.2	16.0%	-22.8%
82	O=C(O)C1CC(O)CN1S(=O)(=O)c1cccs1 (stereo unspecified)	0.7%	-3.3	3.3%	-3.0%
83	Fc1ccc(Cn2nnc(-c3ccc(Cl)cc3)n2)cc1	-1.3%	nt	-8.0%	-32.9%
84	O=C(c1ccco1)c1cn(CC(=O)N2CCCCCC2)c2ccccc12	-1.9%	?	-2.6%	0.2%
85	Cc1c(S(=O)(=O)N(C)C2CCCCC2)c(=O)n(C)c(=O)n1C	1.6%	nt	-0.9%	nt
86	COc1cc2c(cc1OC)C(c1ccccc1)N(C(=O)c1ccccc1F)CC2 (stereo unspecified)	-0.6%	nt	-1.3%	-1.9%

# A portion of the library; the hit share may differ from the screen's.
